AmpC inh no det: Promiscuous and Specific Inhibitors of AmpC Beta-Lactamase (assay without detergent) | Potency, µM (doses to about 28.7 µM), without a hit: top-dose activity change, negative = inhibition | hit rate 1.8% among 71,000 | AID 585, 2007 | AmpC nitrocefin hydrolysis, absorbance 480 nm, no detergent; potencies from a single point are estimates; active = falling curve, for most hits resting on a single point; inconclusive = weak or doubtful change; inactive = flat or rising curve; note: % of control where 0% means no effect; about half of the hits show no inhibition at the top dose; a quarter of the inactives give rising signals
Target sequence (P00811 whole entry, looked up): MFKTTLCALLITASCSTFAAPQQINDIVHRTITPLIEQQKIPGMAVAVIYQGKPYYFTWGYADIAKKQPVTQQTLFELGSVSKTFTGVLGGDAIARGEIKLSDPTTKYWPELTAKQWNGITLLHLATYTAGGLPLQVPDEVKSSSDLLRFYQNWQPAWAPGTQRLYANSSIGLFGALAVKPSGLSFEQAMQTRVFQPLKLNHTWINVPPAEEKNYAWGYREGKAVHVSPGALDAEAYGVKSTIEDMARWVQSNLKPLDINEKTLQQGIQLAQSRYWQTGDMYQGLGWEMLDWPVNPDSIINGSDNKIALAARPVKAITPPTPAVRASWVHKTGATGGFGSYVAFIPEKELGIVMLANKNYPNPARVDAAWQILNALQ
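AmpC, 20 mM phosphate pH 7.0; 15 min cpd preinc, RT; start with nitrocefin (800 uM stock); A480 kinetic read, 20 s intervals, 4 min. No-enzyme wells = negative control.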
An asterisk follows results filed as active; [ ] = dose if it differs, or a comment. Potency is the fitted concentration of half-maximal effect. The list is partial. The share of hits here may be higher or lower than overall.

Results for COc1ccc2[nH]cc(CCNc3ncnc4ccc(-c5cccnc5)cc34)c2c1 ?
AmpC inh no det: -0.1%

What do the screens show for `O=C(c1ccco1)c1n[nH]nc1-c1ccccc1`?
AmpC inh no det: -14.4%

How did O=S(=O)(c1ccc2c(c1)OCO2)N1CCN(c2nnnn2-c2ccccc2)CC1 do in these assays?
AmpC inh no det: 0.0%

Results for C=CCNS(=O)(=O)c1cccc2cc(C(=O)O)c(O)cc12 ?
AmpC inh no det: -24.7%

What do the screens show for `CC(C)=CCSc1nnc([C@@H](NC(=O)OC(C)(C)C)C(C)C)o1`?
AmpC inh no det: 23.4%

How did Nc1ncnc2nc(SCCc3ccccc3)[nH]c12 do in these assays?
AmpC inh no det: -19.2%

What do the screens show for `COc1cccc(NC(=O)c2oc3ccccc3c2NC(C)=O)c1`?
AmpC inh no det: -3.3%

Results for Cc1cccc(N2CCN(C(=O)C3CCCCC3)CC2)c1C ?
AmpC inh no det: 65.9%

How did COC(=O)CSc1ccc2nnc(-c3ccc(OC)c(OC)c3)n2n1 do in these assays?
AmpC inh no det: -0.5%

What do the screens show for `C=CCn1c(-c2ccccc2)nc2nc3ccccc3nc21`?
AmpC inh no det: 34.8%

Sorted by length of the SMILES (descending): 5 of the compounds above
Results for COc1ccc2[nH]cc(CCNc3ncnc4ccc(-c5cccnc5)cc34)c2c1 ?
AmpC inh no det: -0.1%

How did COC(=O)CSc1ccc2nnc(-c3ccc(OC)c(OC)c3)n2n1 do in these assays?
AmpC inh no det: -0.5%

Results for C=CCNS(=O)(=O)c1cccc2cc(C(=O)O)c(O)cc12 ?
AmpC inh no det: -24.7%

What do the screens show for `COc1cccc(NC(=O)c2oc3ccccc3c2NC(C)=O)c1`?
AmpC inh no det: -3.3%

What do the screens show for `C=CCn1c(-c2ccccc2)nc2nc3ccccc3nc21`?
AmpC inh no det: 34.8%

Additional compounds follow:
Results for Cc1cc(NC(=O)CCC(=O)N(CC(=O)NC2CCCC2)Cc2ccc(F)cc2)no1 ?
AmpC inh no det: 42.5%

Results for Cc1ccccc1S(=O)(=O)NC1OC(=O)C(Cl)=C1Cl (stereo not drawn) ?
AmpC inh no det: -4.1%

What do the screens show for `O=C(CSc1nc(-c2ccc(F)cc2)cs1)NC(=O)NCc1ccco1`?
AmpC inh no det: 3.16µM*

What do the screens show for `COc1ccccc1NC(=O)C1=C(C)Nc2nnnn2C1c1cc(Br)ccc1OC` (stereo not drawn)?
AmpC inh no det: 89.0%

Results for COc1ccc(CCNC(=O)C2CCN(S(=O)(=O)c3c(C)noc3C)CC2)cc1OC ?
AmpC inh no det: 39.4%

What do the screens show for `Cc1csc(NC(=O)CCn2c(=O)oc3ccccc32)n1`?
AmpC inh no det: -9.0%

Results for COC(=O)c1cc(COC(=O)c2cccnc2SC)oc1C ?
AmpC inh no det: 32.7%

Results for COc1cc(OC)c(NC(=O)CCc2nc(-c3ccc(C)cc3)no2)cc1Cl ?
AmpC inh no det: 12.5%

How did COc1cccc(-c2csc3nc[nH]c(=O)c23)c1 do in these assays?
AmpC inh no det: -0.7%

What do the screens show for `CN(c1ccc(C(=O)N2CCN(c3ccc(F)cc3)CC2)cc1)S(C)(=O)=O`?
AmpC inh no det: 61.6%

Next section, starting with the last 2 of the part before.
How did COc1cccc(-c2csc3nc[nH]c(=O)c23)c1 do in these assays?
AmpC inh no det: -0.7%

What do the screens show for `CN(c1ccc(C(=O)N2CCN(c3ccc(F)cc3)CC2)cc1)S(C)(=O)=O`?
AmpC inh no det: 61.6%

How did C=C(Br)Cn1c(CCC)nc2ccccc21 do in these assays?
AmpC inh no det: 15.8%

What do the screens show for `CCn1c(=O)n(CC(=O)N(C)Cc2ccccc2)c(=O)c2ccccc21`?
AmpC inh no det: 36.6%

How did O=C(NCc1ccc2c(c1)OCO2)C1CCN(S(=O)(=O)c2cccs2)CC1 do in these assays?
AmpC inh no det: -8.3%

What do the screens show for `CN(C)C(=O)Oc1ccc[n+](C)c1`?
AmpC inh no det: 2.5%

Results for COC(=O)CN(c1ccc(OC)cc1)S(=O)(=O)c1ccc(OC)c(OC)c1 ?
AmpC inh no det: 56.7%

Results for Cc1oc(-c2ccccc2)nc1C(=O)Nc1nccs1 ?
AmpC inh no det: -0.1%

How did N#CC1=C(N)OC2=C(C(=O)CCC2)C1Cc1ccccc1 (stereo not drawn) do in these assays?
AmpC inh no det: 4.8%

How did Cc1oc(-c2ccccc2Cl)nc1CSCC(=O)NC1CC1 do in these assays?
AmpC inh no det: 22.2%

What do the screens show for `Cc1cc(Nc2ccc(F)cc2F)n2ncnc2n1`?
AmpC inh no det: -7.0%

What do the screens show for `c1cc(NC2CC2)nc(-c2ccoc2)n1`?
AmpC inh no det: 15.5%

What do the screens show for `CCCn1c(NC(=O)C2COc3ccccc3O2)nc2ccccc21` (stereo not drawn)?
AmpC inh no det: -12.2%

How did O=C(CSc1nc2scc(-c3ccco3)c2c(=O)n1-c1ccccc1)NCC1CCCO1 (stereo not drawn) do in these assays?
AmpC inh no det: 78.8%

Results for C=CCSc1nc(O)c(CC)c(=O)n1C(C)CC (stereo not drawn) ?
AmpC inh no det: 3.1%

How did O=C(CS(=O)(=O)Cc1ccccc1)N1CCN(Cc2ccc3c(c2)OCO3)CC1 do in these assays?
AmpC inh no det: -2.8%

Results for NS(=O)(=O)c1cc(Cl)c(Cl)c(S(N)(=O)=O)c1 ?
AmpC inh no det: -13.7%[12.8 µM]

What do the screens show for `COc1ccc(-n2c(=O)c(-c3cccs3)nc3cnc(Nc4ccccc4)nc32)cc1`?
AmpC inh no det: -7.9%

What do the screens show for `NC(N)=S`?
AmpC inh no det: -5.8%

Results for CSc1oc(-c2ccccc2)nc1S(=O)(=O)c1ccc(F)cc1 ?
AmpC inh no det: -3.8%

Results for O=c1[nH]c(SCc2ccccc2Cl)nc2c1CCC2 ?
AmpC inh no det: -5.1%

How did Cc1cc(C)n(-c2nc(NCCCO)c3c4c(sc3n2)CCCC4)n1 do in these assays?
AmpC inh no det: 131.3%

How did CCc1nc(N)c(C#N)c(-c2ccco2)c1C do in these assays?
AmpC inh no det: -9.0%

What do the screens show for `Cn1c(C(=O)NCCN2CCOCC2)cc2c(=O)n(C)c3ccccc3c21`?
AmpC inh no det: 106.0%

Results for Cc1cccc(N2CCN(S(=O)(=O)c3ccc4c(c3)CCC(=O)N4)CC2C)c1 (stereo not drawn) ?
AmpC inh no det: 10.5%

What do the screens show for `CCn1c(=O)cc(C(=O)OC)sc1=Nc1ccc(F)c(F)c1`?
AmpC inh no det: 24.8%

How did Cn1c(C(=O)NCCN2CCc3ccccc3C2)cc2c(=O)[nH]c3ccccc3c21 do in these assays?
AmpC inh no det: 91.4%

What do the screens show for `CN(Cc1c(F)cccc1Cl)c1nnnn1-c1ccccc1`?
AmpC inh no det: 6.8%

How did Oc1ccccc1Cl do in these assays?
AmpC inh no det: -9.0%

Results for COc1cccc(C2=NOC(C(=O)Nc3cc(OC)c(OC)c(OC)c3)C2)c1 (stereo not drawn) ?
AmpC inh no det: 66.2%

Results for COc1cccc2[nH]c3c(N4CCC(C)CC4)ncnc3c12 ?
AmpC inh no det: -11.3%

How did COc1cc(OC)c2c(c1Cl)O[C@@]1(C2=O)[C@H](C)CC(=O)C[C@@H]1OC do in these assays?
AmpC inh no det: 24.8%[12.8 µM]

How did CCN(C(=O)COc1cc(=O)n(C)c2ccccc12)c1cccc(Cl)c1 do in these assays?
AmpC inh no det: 110.0%

How did COc1ccccc1-c1noc(CCC(=O)Nc2cc(C(F)(F)F)ccc2Cl)n1 do in these assays?
AmpC inh no det: 75.5%

What do the screens show for `Cc1cc(NC(=O)CSc2nc3ccsc3c(=O)n2CCCCC(=O)O)no1`?
AmpC inh no det: -1.5%

How did O=C(NC1CCCCC1)C1CCN(S(=O)(=O)c2cccs2)CC1 do in these assays?
AmpC inh no det: 0.2%

What do the screens show for `COC(=O)c1ccc(N2C(=O)CC(N3CCOCC3)C2=O)cc1` (stereo not drawn)?
AmpC inh no det: -7.6%

What do the screens show for `Cc1ccccc1NC(=O)Cn1cccc1`?
AmpC inh no det: 2.9%

Results for Cc1cc(C)n2ncc(C(=O)NCc3cccnc3)c2n1 ?
AmpC inh no det: -0.6%

Results for COc1cc(C(=O)Nc2ccc3c(c2)C(=O)N(CCC(=O)O)C3=O)cc(OC)c1OC ?
AmpC inh no det: 1.7%

Results for CCCCOC(=O)C1[C@H]2C(=O)N(c3ccccc3CC)C[C@]23C=C[C@H]1O3 (stereo partly drawn) ?
AmpC inh no det: 11.8%

Results for O=C(NC(NCCCN1CCOCC1)(C(F)(F)F)C(F)(F)F)C1CCCCC1 ?
AmpC inh no det: -11.3%

What do the screens show for `CC(C)[C@@H]1O[C@H](/C=C\c2ccccc2)OCC1(C)C`?
AmpC inh no det: 7.8%[5.75 µM]

Results for CCCNC(=O)NC(=O)CSc1nnc(-c2ccncc2)n1CC ?
AmpC inh no det: 11.0%

How did COc1ccc(NC(=O)c2cc(-c3ccc(C)o3)nc3ccccc23)cc1OC do in these assays?
AmpC inh no det: 89.4%

Results for O=C(Nc1ccc(S(=O)(=O)N2CCOCC2)cc1)C1COc2ccccc2O1 (stereo not drawn) ?
AmpC inh no det: 15.1%

How did C[C@H](CCC(=O)O)[C@H]1CC[C@@H]2[C@H]3CC[C@H]4C[C@H](O)CC[C@@]4(C)[C@@H]3CC[C@@]21C do in these assays?
AmpC inh no det: -4.0%[5.75 µM]

Results for O=C(c1ccccc1)c1ccc(N2CCOCC2)c(NC(=O)c2ccco2)c1 ?
AmpC inh no det: 62.2%

How did COc1cccc(CNc2ccc(S(N)(=O)=O)cc2)c1OC do in these assays?
AmpC inh no det: 0.4%

What do the screens show for `CCNc1nc(SC(C)C(=O)Nc2ccccc2)nc(N2CCOCC2)n1` (stereo not drawn)?
AmpC inh no det: 3.8%

What do the screens show for `CC(C)NCC(O)c1ccc(O)c(O)c1` (stereo not drawn)?
AmpC inh no det: -7.0%

Results for Fc1ccc(Nc2ncncc2-c2ccccc2C(F)(F)F)cc1 ?
AmpC inh no det: 5.2%

What do the screens show for `COc1ccc(Nc2ncnc3nc[nH]c23)cc1OC`?
AmpC inh no det: 3.5%

How did COCCCNC(=O)CC(NS(=O)(=O)c1ccc(C)cc1)c1ccco1 (stereo not drawn) do in these assays?
AmpC inh no det: -0.7%

Results for CC1CCC(NC(=O)c2cc3c(=O)n(C)c4ccccc4c3n2C)CC1 (stereo not drawn) ?
AmpC inh no det: 3.98µM*[single pt active]

Results for COc1ccccc1NC(=O)NCc1ccc2c(c1)OCO2 ?
AmpC inh no det: -12.1%

How did N#Cc1c(C#N)c(-c2ccccc2)n(-c2ccc(C(=O)O)cc2)c1N do in these assays?
AmpC inh no det: -1.3%

How did COC(=O)[C@@]1(Cc2ccc(F)cc2)[C@H]2c3cc(C(=O)N4CCCC4)n(CCN4CNCC4=O)c3C[C@H]2CN1C(=O)c1ccccc1 do in these assays?
AmpC inh no det: 162.0%

How did COC(=O)c1c(NC(=O)c2ccc(C)o2)sc2c1CCCCC2 do in these assays?
AmpC inh no det: 32.8%

Results for O=C(CCC(=O)N1CCN(c2ccccn2)CC1)Nc1nnc(C2CCCCC2)s1 ?
AmpC inh no det: 3.3%

What do the screens show for `N#Cc1c(N)oc(-c2ccco2)c1-c1ccco1`?
AmpC inh no det: -14.6%

What do the screens show for `NC(=O)C1(S(=O)(=O)c2ccccc2)CCCCC1`?
AmpC inh no det: 0.6%

What do the screens show for `COc1cccc(-c2cc(C(F)(F)F)nc(N3CCCCC3)n2)c1`?
AmpC inh no det: -7.1%

How did CCNc1ncc2nc(-c3ccccc3)c(=O)n(Cc3cccc(OC)c3)c2n1 do in these assays?
AmpC inh no det: -2.6%

Results for CCOC(=O)/C=C(\C)Nc1cc(C)nn1-c1ccccc1 ?
AmpC inh no det: -0.5%

Results for CCOC(=O)N1CCN(C(=O)c2cc(-c3ccc(OCC)cc3)nc3ccccc23)CC1 ?
AmpC inh no det: 126.5%

Results for COCCNC(=O)c1cc(-c2cccs2)on1 ?
AmpC inh no det: 0.9%

What do the screens show for `CC(=O)c1c(C)n(CC(=O)NCc2ccc3c(c2)OCO3)c2ccccc12`?
AmpC inh no det: 21.6%

Results for CC(C)Cn1c(N)c(C(=O)COC(=O)c2ccc3c(c2)OCCO3)c(=O)n(C)c1=O ?
AmpC inh no det: 65.6%

What do the screens show for `Fc1cccc(CSc2nc3ccncc3[nH]2)c1`?
AmpC inh no det: -8.7%

Results for Cc1ccc(C)c(OCC(O)CN2CCCCC2C)c1 (stereo not drawn) ?
AmpC inh no det: -5.9%

What do the screens show for `Cc1ccc(S(=O)(=O)c2cc3c(=O)n4ccccc4nc3n(Cc3ccco3)c2=N)cc1`?
AmpC inh no det: 45.3%

What do the screens show for `CCCOc1ccc(C(CC(=O)O)NC(=O)c2ccc3c(c2)OCO3)cc1` (stereo not drawn)?
AmpC inh no det: -6.8%

Results for CCCCn1c(SCc2ncc(-c3ccccc3)o2)nc2cc(S(N)(=O)=O)ccc21 ?
AmpC inh no det: -12.7%

Results for Cc1ccc(NC2CC(=O)N(c3ccc(N4CCCCC4)cc3)C2=O)cc1 (stereo not drawn) ?
AmpC inh no det: -12.1%

Results for CCc1ccc2c(CN3CCN(S(=O)(=O)c4ccc5c(c4)OCCO5)CC3)cc(=O)oc2c1 ?
AmpC inh no det: 6.5%

Results for COc1ccc(CCNc2nnc(Sc3nnnn3-c3ccccc3)s2)cc1OC ?
AmpC inh no det: 19.8%

Results for O=C(CN1C(=O)c2ccccc2S1(=O)=O)NCCC1=CCCCC1 ?
AmpC inh no det: -3.6%

What do the screens show for `CCc1ccccc1S(=O)(=O)Cc1ccc(C(=O)N2CCN(c3ccccn3)CC2)o1`?
AmpC inh no det: 105.9%

Results for O=C(Nc1cccc(-n2cnnn2)c1)c1ccco1 ?
AmpC inh no det: -12.4%

Gathered by group: the compounds so far with bromine.
What do the screens show for `COc1ccccc1NC(=O)C1=C(C)Nc2nnnn2C1c1cc(Br)ccc1OC` (stereo not drawn)?
AmpC inh no det: 89.0%

How did C=C(Br)Cn1c(CCC)nc2ccccc21 do in these assays?
AmpC inh no det: 15.8%

Screens as filed in PubChem BioAssay.
